gsp ag – activates gsp, the McCune-Albright syndrome mutation | AID 624287 | gsp mutant cells, cAMP HTRF, 30 min; control for the full effect not named in the record | 340,000 tested, 0.13% active | Potency, µM (titrated, usually from 76.9 µM), for the others: top-dose activation (cAMP increase), actives largely listed as activators; active = well fitted activation curve with a large enough effect; inconclusive = small, poorly fitted or top-dose-only effect, or another doubt; inactive = no such curve, though single readings can be large or run the other way; cell line not stated here;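 further: phosphodiesterase inhibitor Ro 20-1724 added with compounds to block cAMP breakdown; potency means the concentration at half of the fitted maximal effect; nearly all actives have a fitted effect of over 60% in size; about a fifth of the inactives were tested at one dose only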
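Cells stably selected in G418 were plated at 2000/well, grown 16-24 hr, then given compounds in DMSO with the PDE inhibitor […] (300 uM solution added) for 30 min at 37C; cAMP was read by HTRF.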
TRPML1 inh – blocks the human TRPML1 channel. TRPML1-inducible cells, Ca2+ dye fluorescence, FDSS; stronger effect = lower value; inhibition of EC80 agonist-evoked calcium signal. activity change, negative = inhibition, % (concentration not given with the values). 390,000 tested, 0.02% active. AID 624415; in the data active means activity change below about -50%; inconclusive means about -30% to -50%; inactive means above about -30%;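 further: stimulus is agonist 54-4 at its EC80 concentration; on the % scale 0 is the no-effect control and ±100 the full control effect; compound concentration not given in the record; the text of the record puts the active cut at -80%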
Target sequence (Q9GZU1 whole entry, looked up): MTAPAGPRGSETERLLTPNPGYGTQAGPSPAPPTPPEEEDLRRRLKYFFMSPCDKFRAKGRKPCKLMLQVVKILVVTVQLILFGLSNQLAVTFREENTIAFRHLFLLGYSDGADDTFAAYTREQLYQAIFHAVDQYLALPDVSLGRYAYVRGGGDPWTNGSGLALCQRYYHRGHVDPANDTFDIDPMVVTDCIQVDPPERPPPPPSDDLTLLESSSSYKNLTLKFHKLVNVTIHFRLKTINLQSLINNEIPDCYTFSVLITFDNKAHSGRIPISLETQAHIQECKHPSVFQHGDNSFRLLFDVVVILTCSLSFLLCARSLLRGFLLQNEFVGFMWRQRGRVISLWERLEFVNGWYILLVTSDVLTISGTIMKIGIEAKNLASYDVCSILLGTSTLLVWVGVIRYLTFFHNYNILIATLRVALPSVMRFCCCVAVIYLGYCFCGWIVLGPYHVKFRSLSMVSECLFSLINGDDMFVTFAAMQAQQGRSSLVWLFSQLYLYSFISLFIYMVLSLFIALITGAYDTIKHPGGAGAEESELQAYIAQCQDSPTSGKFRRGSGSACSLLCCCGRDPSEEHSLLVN
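Calcium fluorescence in TRPML1-DL cells induced overnight with Tet: a 110 s read after compound pin addition, then a 110 s antagonist read after challenge with 54-4 at 4 uM final (EC80).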
Menin-MLL FL inh – menin-MLL binding inhibition, fluorescein peptide | Fluorescence polarization, fluorescein-MLL peptide displacement from menin | FP activity change, % at 61.4 µM | 290,000 tested, under 10 active; inconclusive = falling polarisation curve, or a change in total fluorescence; inactive = total fluorescence flat and polarisation flat or rising; no compound was filed as active; the % refers to the polarisation; negative = inhibition;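 further: % of control where 0% means no effect; inhibitors lower the polarisation; unlabelled MLL peptide was the positive control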
Sfp PPTase inh – Sfp phosphopantetheinyl transferase inhibition. Biochemical Sfp PPTase activity, qHTS. Potency, µM, inactives show max response, negative = inhibition, most hits filed as inhibitors. 310,000 tested, 3.5% active. AID 1490; active means well fitted inhibition curve with a large enough effect; inconclusive means small, poorly fitted or top-dose-only effect, or another doubt; inactive means no such curve, though single readings can be large or run the other way;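 further: the enzyme is Sfp with the accession as filed and its product quenches rhodamine fluorescence; potency means the concentration at half of the fitted maximal effect; 0% = enzyme reaction without inhibitor and -100% = no enzyme wells; top concentration of the series not given in the record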
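Compounds were incubated with enzyme (final 15 nM) for 15 min at room temperature before substrate addition started the reaction. Fluorescence at 525 nm excitation, 598 nm emission was recorded immediately and after 30 minutes.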
TRPV1 potentiator – enhances activation of the human vanilloid receptor TRPV1; Q8NER1; TRPV1-expressing cells, Fluo-8 calcium influx, capsaicin EC20 potentiation; host cell line not named in the record; control for the full effect not named in the record; potentiation, % at 8.33 µM; 320,000 tested, 0.02% active; AID 540277; active means potentiation above 80%; inconclusive means 30% to 80%; inactive means below 30%; further: 0% is about no effect
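Cells expressing TRPV1 were dye-loaded with Fluo-8 and read kinetically: 10 s baseline, 3 min after compound (agonist portion), then 2 min after EC20 capsaicin (allosteric enhancer portion). Calcium-bound dye fluorescence at 480/520 nm.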
ClpP mod – qHTS Assay for Activators of ClpP; ATP-dependent Clp protease proteolytic subunit (Bacillus subtilis (strain 168)), P80244; purified B. subtilis ClpP, FRET peptide cleavage, 20 min; Potency, µM (titrated, usually from 57.5 µM), without a hit: at the highest dose activity change, negative = active; 340,000 tested, 1.9% active; active = well fitted falling curve with a large enough effect; inconclusive = small, poorly fitted or top-dose-only effect; inactive = no such curve, though single readings can be large or run the other way; further: potency means the concentration at half of the fitted maximal effect; the source files actives as falling curves though it sought activators and does not explain the sign; nearly all actives have a fitted effect of over 65% in size; many hits overshoot -100%
Target sequence (P80244 whole entry, looked up): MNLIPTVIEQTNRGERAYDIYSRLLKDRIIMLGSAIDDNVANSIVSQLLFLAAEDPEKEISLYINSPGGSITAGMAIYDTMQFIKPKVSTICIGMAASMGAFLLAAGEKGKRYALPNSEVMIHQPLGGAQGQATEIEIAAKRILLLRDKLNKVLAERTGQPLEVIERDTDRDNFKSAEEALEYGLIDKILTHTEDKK
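Buffer: 100 mM Tris/HCl pH8, 100 mM KCl, 0.05% low protease BSA, 2.5% glycerol, 0.01% Tween-20. ClpP 10 microg/mL final; 20 min RT; delta FRET normalized to ADEP and DMSO controls.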
gsp antag – antagonists of gsp mutant (McCune-Albright syndrome); AID 624288; Potency, µM (top dose mostly 76.9 µM), for inactives: top-dose activity change, negative = inhibition, actives largely listed as inhibitors; 340,000 tested, 0.4% active; gsp-mutant cells, cAMP HTRF, 30 min; control for the full effect not named in the record; active = falling curve of any shape with a large fitted effect; inconclusive = falling curve, mostly with a smaller effect; inactive = flat or rising curve; cell line not stated here;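 further: intracellular cAMP measured with PDE inhibitor Ro 20-1724 present during compound exposure; potency means the concentration at half of the fitted maximal effect; on the % scale 0 is the no-effect control and ±100 the full control effect; nearly all actives have a fitted effect of over 65% in size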
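G418-selected cells were plated in DMEM/10% FBS for 16-24 h at 37C, then treated with compounds plus the PDE inhibitor […] (300 uM solution added) for 30 min at 37C. Intracellular cAMP was measured by HTRF after 30 min lysis at room temperature.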
Numbers without * were called inactive; u = inconclusive; x = no result given; & = joins results of further samples; [ ] = dose if it differs, or a comment.

SMILES | gsp ag | TRPML1 inh | Menin-MLL FL inh | Sfp PPTase inh | TRPV1 potentiator | ClpP mod | gsp antag
CCOC(=O)c1c(C)nc2ccccn12 | 25% | 2 | -3.0 | 9% | 5 | -0.7% | 3%
O=C1CC(=O)N2CCSC2=N1 | u | 5 | x | x | x | x | 17%
Oc1ccc(C=Nc2ccccc2-c2nc3ccccc3[nH]2)c(O)c1 | 37% | -2 | 0.5 | 4% | -10 | -0.6% | -7%
COc1ccc(N(C(=O)CNC(=O)c2ccco2)C(C(=O)NCC2CCCO2)c2ccc(OC)c(OC)c2)cc1 (configuration not stated) | -6%[15.4 µM] | -5 | -1.9 | 6% | u | 0.8% | -7%
OC1(c2ccc(Cl)cc2)CCN(Cc2nc(-c3cnccn3)no2)CC1 | 1% | 18 | -3.8 | 7% | 12 | x | 16%
Nc1c(Br)cc2oc(-c3ccccc3)nc2c1Br | -4% | -9 | -0.8 | 9% | 13 | -2.7% | 7%
Cc1cc(C)c2oc(=O)cc(CN3CCC(C)CC3)c2c1 | u | -2 | 1.3 | -3% | -11 | x | -9%
Fc1ccc(-c2nnc(SCc3cccnc3)o2)cc1 | u | -18 | -3.1 | -3% | -8 | x | -10%
CC1CN(S(=O)(=O)c2cccc(C(=O)OC/C(O)=C(\C#N)c3nc4ccccc4[nH]3)c2)CC(C)O1 (configuration not stated) | -11% | -18 | 24 | 27% | 2 | 1.1% | -7%
COc1ccc(NC(=O)COC(=O)CNC(=O)C2CCCCC2)cc1 | -8%[15.4 µM] | 12 | -2.5 | 15% | 5 | x | 5%
CCc1cccc(NC(=O)C(NC(=O)C2CCCCC2)C(C)C)c1 (configuration not stated) | 6% | 3 | 0.8 | 16% | -12 | x | 12%
CCCCOc1ccc(C(=O)CCN2CCCCC2)cc1 | x | -10 | -3.3 | -22%&-27%&-7% | 3 | 1.7% | 10%
Cc1ccc(C(=O)NCC(=O)Nc2cc(C)ccn2)cc1 | -10% | 1 | x | x | 12 | -8.9% | 5%
CCOC(=O)C1=C(O)/C(=C/N(C)C)N=C1C | 0% | -1 | u | -30% | -4 | 0.9% | 7%
COC(=O)c1ccncc1N | 9% | -2 | -0.9 | 20% | -4 | 3.9% | 9%
CC1CC=CC2C1C(=O)N(Cc1ccccc1)C2c1ccc(Br)cc1F (configuration not stated) | x | 6 | -0.7 | -13% | x | x | x
CC(=O)c1cc2c(cc1NC(=O)CN1CCN(c3cccc(C(F)(F)F)c3)CC1)OCO2 | -3% | 7 | 1.7 | 2% | 3 | u | 2%
CCOc1ccccc1NC(=O)CSc1nnc(-c2cnccn2)n1CC | 4% | -4 | 3.6 | 1% | 4 | -0.4% | 0%
O=C(NCc1ccccc1)N(Cc1cc2cc3c(cc2[nH]c1=O)OCO3)CC1CCCO1 (configuration not stated) | 2% | -8 | 4.8 | 4% | 4 | 28µM* | -11%
O=C(O)c1cc(C(F)(F)F)nc2c(C(F)(F)F)cccc12 | 6% | -2 | -2.0&1.2 | 20%&17% | 10 | 1.6% | -3%
COc1cc(C2C(C(=O)c3ccc(C)o3)=C(O)C(=O)N2c2cc(C)on2)ccc1O (configuration not stated) | -1% | -17 | -2.4 | 8% | -3 | -2.5% | -2%
CCOC(=O)C(C(=O)OCC)[C@@H]1CS(=O)(=O)C[C@H]1C(C(=O)OCC)C(=O)OCC | -17% | 2 | 1.5 | 7% | -32 | -0.5% | -3%
COc1ccc(C2CC(=O)C(C=NCCO)=C(O)C2)cc1 (configuration not stated) | -11% | 14 | -9.6 | 14% | -12 | -3.6% | 6%
O=C(NCc1ccc2c(c1)OCO2)c1cccc(S(=O)(=O)N2CCCC2)c1 | u | 6 | x | 1% | -6 | 2.3% | -1%
COc1ccc2oc(=O)c(C(=O)N3CCN(C(=O)c4ccco4)CC3)cc2c1 | 5%[15.4 µM] | 2 | 0.2 | -21% | -2 | 1.2% | 4%
Other records:
SMILES | gsp ag | TRPML1 inh | Menin-MLL FL inh | Sfp PPTase inh | TRPV1 potentiator | ClpP mod | gsp antag
COc1cc(NC(=O)c2ccccc2[N+](=O)[O-])c(C(=O)O)cc1OC | -1% | 10 | -2.5 | 5% | -1 | x | -2%
Nc1ncnc2c1ncn2[C@@H]1O[C@H](CNCc2ccc(-c3cc(C(F)(F)F)ccc3Cl)o2)[C@@H](O)[C@H]1O | x | 13 | x | x | x | 1.9% | -33%
CCn1c(C(c2ccccc2)c2ccccc2)n[nH]c1=S | 5% | 9 | 4.0 | 2% | 6 | -10% | -4%
O=C1CC(c2ccccc2)C(C(=O)O)N1 (configuration not stated) | -27% | -10 | -2.1 | 22% | -4 | -1.9% | 12%
O=C(Cn1ccc2ccccc2c1=O)NCC1COc2ccccc2O1 (configuration not stated) | -38%[inhibitor] | 5 | -1.1 | -1% | 11 | -21% | 14%
O=S(=O)(c1ccc2c(c1)OCCO2)N1CCc2ccccc21 | -38%[inhibitor] | 0 | -0.8 | 4% | 5 | x | -7%
COc1cc(NC(=S)NCC2CCCO2)c(OC)cc1Cl (configuration not stated) | -5% | 6 | -13 | 28% | -5 | 0.7% | 27%
COc1ccc(NC(=O)CCCOc2ccc(C)cc2)cc1S(=O)(=O)N1CCCCC1 | -15% | 24 | x | x | x | -0.5% | x
O=S(=O)(NCC(c1ccco1)N1CCN(c2ccccc2F)CC1)c1ccc(F)cc1 (configuration not stated) | 15%[15.4 µM] | 4 | 5.5 | 30% | 12 | -6.5% | 0%
COc1ccc(-c2cc(C(=O)Nc3cc(S(N)(=O)=O)ccc3C)c3ccccc3n2)cc1OC | 11%[15.4 µM] | 23 | x | x | x | u | u
C=CCn1c(SCC(=O)N2CCOCC2)nnc1C(C)NC(=O)c1ccccc1 (configuration not stated) | -40%[15.4 µM] | 7 | x | 14% | 15 | -0.9% | 18%
Cn1cnc2nc(Cl)nc(Cl)c21 | u | -8 | x | x | x | x | 4%
COc1ccc(S(=O)(=O)N2CCN(C(=O)c3ccc(NC(C)=O)cc3)CC2)cc1 | -8% | 7 | x | x | -4 | -2.5% | 9%
CC(C)(C)c1nnc(N/N=C/c2ccccc2O)n(N)c1=O | u | 5 | -1.4 | -3% | -5 | 0.7% | -27%
O=C(Nc1ccccc1Sc1ccccc1)c1ccc(F)cc1 | u | -13 | 1.0 | -19% | 5 | -1.3% | -24%
c1ccc(-c2cc(N3CCOCC3)nc(-c3ccccc3)n2)cc1 | 8% | -9 | 2.1 | 14% | -6 | -15% | 3%
COc1ccccc1CCNC(=O)C(=O)c1cn(CC(=O)N2CCCC2)c2ccccc12 | -65%[inhibitor] | -5 | -0.3 | 7% | 3 | -6.2% | -10%
O=C(CSc1nnc(C2COc3ccccc3O2)o1)N1CCCCC1 (configuration not stated) | -1% | 0 | -0.4 | 0% | 0 | -0.6% | -3%
O=C(Nc1nccs1)C1CC(=O)N(Cc2ccco2)C1 (configuration not stated) | -2%[15.4 µM] | 5 | -4.5 | u | 0 | x | x
CCOc1ccc(CCN2C(=S)N([C@@H](CC(C)C)CN3CCCC3CN3C(=S)NC[C@@H]3Cc3ccc(O)cc3)C[C@@H]2CC(C)C)cc1 (some centres not stated) | x | 14 | x | x | x | -1.3% | 3%
CCC(=O)c1ccc(OC(=O)C2CCN(C3=NS(=O)(=O)c4ccccc43)CC2)cc1 | -58% | -1 | x | x | 8 | -4.0% | -7%
Cc1cccc2cc(C(c3nnnn3C3CCCC3)N3CCOCC3)c(=O)[nH]c12 (configuration not stated) | -41%[inhibitor] | -10 | 0.0 | -1% | -13 | -5.0% | u
NS(=O)(=O)c1ccccc1NC(=O)c1c(O)c2ccccc2[nH]c1=O | 4%[15.4 µM] | 8 | -2.9 | -6% | -3 | -1.0% | u
CCOc1ccc(CN2CCN(Cc3cccn3-c3nccs3)CC2CCO)cc1 (configuration not stated) | -7%[15.4 µM] | -14 | 4.9 | 3% | 9 | x | 10%
COc1cc([N+](=O)[O-])ccc1NC(=O)COC(=O)c1ccc(NC(N)=O)cc1 | 21% | -15 | 0.6 | -14% | 20 | x | 15%

Reprinted from the listing for reference:
SMILES | gsp ag | TRPML1 inh | Menin-MLL FL inh | Sfp PPTase inh | TRPV1 potentiator | ClpP mod | gsp antag
COc1cc(NC(=O)c2ccccc2[N+](=O)[O-])c(C(=O)O)cc1OC | -1% | 10 | -2.5 | 5% | -1 | x | -2%
Nc1ncnc2c1ncn2[C@@H]1O[C@H](CNCc2ccc(-c3cc(C(F)(F)F)ccc3Cl)o2)[C@@H](O)[C@H]1O | x | 13 | x | x | x | 1.9% | -33%

Further compounds follow.
SMILES | gsp ag | TRPML1 inh | Menin-MLL FL inh | Sfp PPTase inh | TRPV1 potentiator | ClpP mod | gsp antag
CCC(C)[C@@H](N)C(=O)N/N=C/c1ccc2ncccc2c1 (some centres not stated) | u | 9 | 2.6 | -13% | -1 | 0.0% | 18%
C[C@@H](O)CNC(=O)c1[nH]cnc1C(=O)Nc1cccc(Cl)c1 | 7% | 31 | x | x | x | -13% | x
C[C@]12c3[nH]c4cc(-c5ccco5)ccc4c3CCN1C(=O)[C@@H](CC(=O)NCCc1ccccn1)C[C@@H]2C(=O)N1CCOCC1 | x | -3 | x | x | x | 3.0% | -3%
FC(F)(F)c1cccc(Sc2cc(C(F)(F)F)nc(-c3ccccn3)n2)c1 | -9% | 54 | 0.5 | u | -5 | 0.2% | -15%
CCCOc1cccc(-c2cc(C(=O)NNC(=S)NCC)c3ccccc3n2)c1 | -4% | 30 | 1.4 | 5% | -12 | 18% | 35µM*
CCOc1ccc(C(=O)CCC(=O)O)cc1 | -5% | 9 | -3.5 | 14% | -8 | 0.1% | -6%
Cc1ccc(CS(=O)Cc2ccc(C(=O)NCc3ccc4c(c3)OCO4)o2)cc1 (configuration not stated) | 25% | -11 | -5.0 | 21% | -13 | 0.8% | -4%
Nc1nonc1-n1nnc(C(=O)N/N=C/C=C/c2ccccc2)c1CSC1=NCCS1 | 9%[15.4 µM] | -10 | 3.0 | 8% | -2 | -5.6% | u
COc1ccccc1N1CCN(C(=O)c2ccc3c(c2)CCN3S(C)(=O)=O)CC1 | 8% | 39 | x | -1% | -13 | -1.0% | -1%
CCc1sc(C(=O)NC2CCN(C)CC2)cc1Br | -12% | 0 | 3.8 | -13% | u | -0.6% | 17%
